Compound activity deposited in PubChem by several laboratories.
26S disassembly – blocks ATP-dependent breakdown of the yeast 26S proteasome; anti-FLAG beads, GFP-proteasome disassembly, flow cytometry; 24,000 tested, 0.2% active; inhibition of disassembly, % (test concentration not listed);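 active means above 40%; inconclusive means likely self-fluorescent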;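 further: plate controls were ATP control with full disassembly for no effect and ATP-gamma-S intact proteasomes for full effect; higher percent means more bead fluorescence retained so stronger block of disassembly; stock transfer was 100 nL into about 10 µL; wells with too few beads may also be inconclusive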
VCAM-1 rise – enhancers of VCAM-1 display on endothelial cells, cell-based, plate reader, pooled HUVEC, TNFa stimulus (AID 455) | 10,000 tested, 0.2% active | augmentation, % at 5 µM | HUVEC TNFa-induced VCAM-1 immunofluorescence, plate reader; numbers were filed only for top-ranked candidate wells;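 active means a compound raising TNF-alpha-driven VCAM-1 surface staining, with its hit status upheld on visual or statistical review; inactive means the rest, including hits rejected on review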;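 further: 0% = TNFa with vehicle and 100% = strongest image-checked hit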
* hit, by the source's call; i = inactive; ? = inconclusive; . = not tested or not shown. An excerpt; the hit share may differ from the screen's.

item	molecule	26S disassembly	VCAM-1 rise
1	COc1ccc(C2CC(=O)c3cnc(NC(=O)c4ccccc4OC)nc3C2)c(OC)c1 (stereo unspecified)	0.8	i
2	Cc1cccc(C2CC(c3ccc(F)cc3)Nc3nc(N)nn32)c1 (stereo unspecified)	1.0	.
3	COCCNC(=O)CCCCCN1C(=O)CCC1=O	-0.1	i
4	O=C(NCCCn1ccnc1)c1cc(-c2ccc3c(c2)OCO3)on1	0.1	.
5	Cc1c(C(=O)N2CCOCC2)sc2ncnc(N3CCc4ccccc4C3)c12	0.1	.
6	Cc1cccc(NC(=O)CN(C)S(=O)(=O)c2cccc3nsnc23)c1C	0.3	.
7	CCCn1c(-c2ccc(F)cc2)cnc1SCC(=O)O	-0.2	i
8	CC(C)CN(CC(C)C)c1nnc(N)s1	1.0	.
9	COc1cccc(Oc2nnnn2-c2ccccc2)c1	-0.2	.
10	Cc1cccn2c(=O)c3cc(C#N)c(=NC(=O)c4cccnc4)n(CC4CCCO4)c3nc12 (stereo unspecified)	-0.3	i
11	CC(COc1ccccc1)N(CCCl)Cc1ccccc1 (stereo unspecified)	-0.4	i
12	O=S(=O)(NCCSc1ccccc1)c1cccs1	0.4	i
13	CC(C)C(NC(=O)C1CCCCC1)C(=O)NC1CCN(Cc2ccccc2)CC1 (stereo unspecified)	0.3	.
14	Cc1cc(N=Cc2cc(Br)ccc2O)no1	0.0	i
15	COc1ccc(-c2nc3n(c(=O)c2C#N)CCCS3)cc1	1.3	.
16	CCS(=O)(=O)N1CCCC(C(=O)NCCc2ccc(OC)c(OC)c2)C1 (stereo unspecified)	-3.2	i
17	CC(C)N(CCNC(=O)C1CCC(=O)N1Cc1ccc(F)cc1)Cc1ccccc1 (stereo unspecified)	-0.5	.
18	CCOC(=O)N1CCC(NC(=O)CCc2nc(-c3ccc(C)cc3)no2)CC1	-1.9	.
19	Cc1onc(-c2ccccc2Cl)c1C(=O)Nc1ccc(-c2cn3cccnc3n2)cc1	-0.7	.
20	CCOCCCN1C(=O)CN(C2CCCCCC2)C(=O)C1c1ccc(OC)cc1 (stereo unspecified)	-1.8	.
21	COc1ccc(-c2noc(CN3C(=O)c4ccccc4C3=O)n2)cc1	1.7	i
22	COC(=O)Cn1c(=O)c2c(nc3n2CC(C)CN3c2ccc(C)c(C)c2)n(C)c1=O (stereo unspecified)	-0.3	i
23	c1ccc(N2CCN(c3nc4cc5c(cc4s3)OCCO5)CC2)cc1	-1.6	.
24	O=C(CSc1nc2cc3c(cc2c(=O)n1CCC1=CCCCC1)OCO3)NCc1ccco1	-0.1	.
25	Cc1cc(C(C)(C)C)cc(C)c1CC1=NCCN1	-0.6	i
26	CC1CN(S(=O)(=O)c2cccc(C(=O)OCc3cc(=O)oc4cc(O)ccc34)c2)CC(C)O1 (stereo unspecified)	0.7	18.4
27	CCOc1ccc(NC(=O)CN2CCN(S(=O)(=O)c3ccc(Cl)cc3)CC2)cc1	-1.0	.
28	CCOc1ccc(C2CC(c3ccc(OC)cc3)n3ncnc3N2)cc1 (stereo unspecified)	-0.5	.
29	COc1cccc(/C(O)=C2/C(=O)C(=O)N(CCN3CCOCC3)C2c2cccnc2)c1 (stereo unspecified)	2.9	i
30	COc1cc(OC)c(NC(=O)Cn2cccc2)cc1Cl	0.7	.
31	CCc1nnc(NC(=O)c2ccc(-c3cccc(C(F)(F)F)c3)o2)s1	-1.6	i
32	Cc1ccc(-n2nc(C)c3c(C)c(CCC(=O)NCc4ccco4)c(C)nc32)cc1	2.1	.
33	Cc1sc2ncnc(NCCCO)c2c1C	-1.3	.
34	O=S(=O)(NCC(c1cccnc1)N1CCN(c2ccc(F)cc2)CC1)c1cc(F)ccc1F (stereo unspecified)	2.0	.
35	COC(=O)Cn1c(CCS(=O)(=O)c2ccc(C)cc2)nc2ccccc21	-0.4	i
36	CC1CCN(C(=O)C(Cc2ccccc2)NS(=O)(=O)c2ccc3c(c2)oc(=O)n3C)CC1 (stereo unspecified)	?	.
37	Cc1ccc(NC(=O)c2cc(-c3cccc(O)c3)on2)cc1C	2.5	.
38	COC(=O)Oc1c(Br)c(=O)oc2ccccc12	-2.6	i
39	O=C(NC(=O)c1ccc(Cl)cc1)Nc1cc(N2CCCCC2)ncn1	-0.1	i
40	COc1ccccc1OC(=O)c1ccc2nsnc2c1	1.5	i
41	Cc1nnc(NCCc2ccccc2)n(N)c1=O	0.5	i
42	Cc1ccc(-n2nc3c(c2NC(=O)c2ccc4c(c2)OCO4)CSC3)c(C)c1	0.7	.
43	CCOC(=O)C1CCN(S(=O)(=O)c2ccc3c(c2)CCCN3C(C)=O)CC1	-2.0	.
44	O=C(NCc1ccc2c(c1)OCO2)C1CCC(CNc2c(N3CCCC3)c(=O)c2=O)CC1 (stereo unspecified)	-1.6	.
45	O=C(NCC1CCCO1)C1CCC(=O)N1CCc1ccccc1 (stereo unspecified)	0.0	.
46	Cc1ccc2nc(NC(=O)Cn3cc4c(n3)CCCCC4)sc2c1	2.0	i
47	CCOCCCNC(=O)C(c1ccc(C)cc1)N(Cc1ccc2c(c1)OCO2)C(=O)c1cnccn1 (stereo unspecified)	3.3	i
48	O=C(NCC1COc2ccccc2O1)C1CCC(CNc2c(N3CCCCC3)c(=O)c2=O)CC1 (stereo unspecified)	0.5	.
49	Cc1ccc(Cn2nc(C)c(NC(=O)c3cc(-c4ccco4)on3)c2C)cc1	-1.1	.
50	O=C(c1cccc(S(=O)(=O)N2CCOCC2)c1)N1CCCC1	-0.1	.
51	CCOC(=O)Cc1csc(NC(=O)c2ccc(S(=O)(=O)N3CCCCC3)cc2)n1	1.1	.
52	COc1ccc(C2C=C(C)Nc3nc(SC)nn32)cc1 (stereo unspecified)	0.5	.
53	CCOC(=O)COc1nc(OC)nc(N2CCOCC2)n1	-0.7	.
54	CCCOc1ccc(-c2nc(N)n[nH]2)cc1	1.0	.
55	C=CCNc1nc(N(c2ccccc2)c2ccccc2)nc(-n2ccnc2)n1	0.3	.
56	CN=Cc1sc2ccccc2c1O	-2.5	.
57	COc1ccccc1OCc1ccc(C(=O)OCC2CCCO2)o1 (stereo unspecified)	-1.5	i
58	CSc1ccc(NC(=O)NCCCN2CCN(c3ccccc3F)CC2)cc1	-3.2	.
59	C(=C\c1ccccc1)/CSc1nnc(-c2ccccn2)n1Cc1ccco1	3.9	i
60	COCCn1c(=O)[nH]c2cc(C(=O)NCCN3CCN(c4cccc(Cl)c4)CC3)ccc2c1=O	-0.6	.

Entries by screen from the list.
Nos. 33–41 in VCAM-1 rise, in turn: ., ., i, ., ., i, i, i, i

(list continues)
item	molecule	26S disassembly	VCAM-1 rise
61	CCOC(=O)c1c(C(=O)OCC)c(C)n(N2C(=O)CSC2=S)c1C	0.4	.
62	Cc1nn(CC(C)C)c(=S)[nH]c1=O	-1.0	.
63	CC(C)c1nnc(NC(=O)Cc2cccs2)s1	-1.4	i
64	CC1CC(C)(C)NC(C)c2ccccc21 (stereo unspecified)	0.0	.
65	Cn1nccc1C(=O)Nc1ccc(OC(=O)c2ccnn2C)cc1	-0.4	.
66	Cc1cccc(N2CCN(C(=O)CCn3c(=S)[nH]c4cc5c(cc4c3=O)OCO5)CC2C)c1 (stereo unspecified)	0.3	i
67	Cc1cc(NC(=O)CCCC(=O)OCC(F)(F)C(F)F)cc(C)c1C(=O)O	1.1	.
68	CCOC(=O)C1CCCN(C(=O)C2CCN(Cc3nc(-c4ccc(Cl)cc4)oc3C)CC2)C1 (stereo unspecified)	4.4	.
69	O=C(Cc1ccccc1)Nc1ccc(CN2CCOCC2)cc1	-1.7	i
70	Cc1cc(C)cc(OCC(=O)NC2=NCCS2)c1	0.2	i
71	O=C(NC1CCCCC1)N(Cc1ccccc1)Cc1ccco1	-0.7	i
72	CCCCN(CCCC)S(=O)(=O)c1ccc2oc(C(=O)N3CCOCC3)c(C)c2c1	-0.8	.
73	Nc1nc(N2C(=O)C3CC=CCC3C2=O)nn1-c1ccccc1 (stereo unspecified)	2.5	i
74	CCSc1nnc(NC(=O)CSc2nc3c(c(=O)n2CC)SC(C)C3)s1 (stereo unspecified)	1.8	.
75	COC(=O)c1ccc(Cl)c(NC(C)=O)c1	1.8	82.8*
76	O=C(CSc1nnc(CNC(=O)c2ccco2)o1)c1ccccc1	-3.5	.
77	O=C(C1CCN(c2ccc(N3CCOCC3)nn2)CC1)N1CCc2ccccc2C1	-0.1	.
78	O=C(CCSc1ccccc1)Nc1ccc(S(=O)(=O)N2CCOCC2)cc1	2.4	i
79	O=C(C1=C(O)C(=O)N(Cc2ccccc2)C1c1ccncc1)c1ccco1 (stereo unspecified)	-0.8	i
80	O=C(NC1CCCC1)C1c2ccccc2C(=O)N1C1CCCCC1 (stereo unspecified)	1.7	.
81	CC(C)CCN(C)C1CCN(C(=O)Nc2c(F)cccc2F)CC1	-1.9	.
82	Cn1c(=O)c2cc(S(=O)(=O)NC(Cc3ccccc3)C(=O)NCc3ccco3)ccc2n(C)c1=O (stereo unspecified)	1.8	.
83	CCOc1ccc(S(=O)(=O)Nc2ccc3c(c2)OCO3)c2cccnc12	-0.3	.
84	CCOc1ccc2nc(NC(=O)Nc3cccs3)sc2c1	0.1	.
85	Cc1ccc2oc(=O)c3cc(C(=O)NCc4ccco4)sc3c2c1	1.5	.
86	COc1ccc(C(=O)Nn2c(SCC(=O)NCC3CCCO3)nc3ccccc3c2=O)cc1 (stereo unspecified)	-0.3	i
87	CN(Cc1cccs1)c1ncnc2sccc12	4.4	i
88	Cc1cccc(CS(=O)(=O)Cc2ccc(C(=O)NCC3CCCO3)o2)c1 (stereo unspecified)	-0.2	i
89	N#Cc1cnc2sc3ccccc3n2c1=N	-2.4	i
90	CCOC(=O)c1[nH]c(CSc2nnc(-c3ccncc3)n2CCOC)c(C(=O)OCC)c1C	11.2	i

Another view of 2 compounds above.
79) O=C(C1=C(O)C(=O)N(Cc2ccccc2)C1c1ccncc1)c1ccco1 (stereo unspecified)
  26S disassembly: -0.8
  VCAM-1 rise: i
80) O=C(NC1CCCC1)C1c2ccccc2C(=O)N1C1CCCCC1 (stereo unspecified)
  26S disassembly: 1.7
  VCAM-1 rise: .

4 compounds drawn at random from the list so far, as already listed:
item	molecule	26S disassembly	VCAM-1 rise
89	N#Cc1cnc2sc3ccccc3n2c1=N	-2.4	i
62	Cc1nn(CC(C)C)c(=S)[nH]c1=O	-1.0	.
75	COC(=O)c1ccc(Cl)c(NC(C)=O)c1	1.8	82.8*
79	O=C(C1=C(O)C(=O)N(Cc2ccccc2)C1c1ccncc1)c1ccco1 (stereo unspecified)	-0.8	i

Additional records follow:
item	molecule	26S disassembly	VCAM-1 rise
91	Cc1ccccc1-n1nc2c(c1NC(=O)c1c(-c3ccccc3Cl)noc1C)CSC2	0.3	.
92	COc1ccc(NC(=O)CSc2nnc(Cc3cccn3C)n2CCc2ccccc2)c(OC)c1	0.3	.
93	CCN(CC)c1ncnc2sc(C(=O)N3CCN(c4ccc(OC)cc4)CC3)c(C)c12	3.0	.
94	CC(C)N(CCCNC(=O)C1CCN(S(=O)(=O)N2CCOCC2)CC1)Cc1ccccc1	0.5	.
95	COC(=O)c1nc2cc(C)ccn2c1F	-1.0	.
96	CC(=O)N1CCc2cc(S(=O)(=O)NCCC(=O)Nc3cccc(C)c3)ccc21	0.8	.
97	CCOC(=O)c1cc2sc(C)cc2n1CC(=O)Nc1cccc(C)c1C	-0.3	i
98	O=C(CN1CCN(Cc2ccc(Cl)cc2)C1=O)NCCN1CCCC1	48.6*	.
99	CCN1CCCC1CNCc1ccc(Cl)cc1Cl (stereo unspecified)	-0.2	i
100	N#Cc1c(N)nc(SCc2ccncc2)c(C#N)c1-c1cccs1	-1.0	i
101	CC1CCN(C(=O)CN(C)S(=O)(=O)c2cccc3nsnc23)CC1	0.4	.
102	Cc1nnc(SCCn2c(N3CC(C)CC(C)C3)nc3c2c(=O)n(C)c(=O)n3C)s1 (stereo unspecified)	-3.5	i
103	Cc1ccccc1-n1nnnc1SCC(=O)Nc1ccc(S(=O)(=O)N2CCCC2)cc1	0.6	i
104	O=C1C(SC(F)(F)C(F)F)=C(C(F)(F)F)OC2C3C=CC(C3)C12 (stereo unspecified)	0.2	.
105	Cc1cc(C)cc(-n2nnc(C(=O)NCc3ccc(Cl)cc3)c2N)c1	-1.1	.
106	CCN1CCc2c(C#N)c(N3CCCCC3)nc(NCc3ccccc3)c2C1	0.6	i
107	CCC1CCCCN1CCNS(=O)(=O)c1ccc2c(c1)CCN2C(C)=O (stereo unspecified)	10.4	.
108	Cc1c(C(=O)N2CCOCC2)oc2ccc(S(=O)(=O)N3CCCC3)cc12	0.1	i
109	CCN(CC)CCCN1C(=O)C(O)=C(C(=O)c2ccco2)C1c1ccc(C)o1 (stereo unspecified)	0.8	i
110	O=c1oc2ccccc2n1CCCOc1ccccc1	-1.1	.
111	CN(C)c1nc(N2CCCCC2)nc(N2CCCCC2)n1	1.1	.
112	CCOC(=O)N1CCN(C(=O)CSc2nnc(-c3cc(OC)cc(OC)c3)o2)CC1	0.5	i
113	CCOc1ccc(C(=O)Nc2c3c(nn2-c2ccc(F)cc2)CS(=O)C3)cc1 (stereo unspecified)	-0.3	.
114	CN1C(=O)C(O)(CC(=O)c2ccccc2O)c2cc(Br)ccc21 (stereo unspecified)	0.4	i
115	Cn1c(=O)cc(OCCCC(=O)N2CCN(c3ccccc3)CC2)c2ccccc21	0.3	.
116	O=C(O)C1CCCN1c1ncnc2c1oc1ccccc12 (stereo unspecified)	-1.1	i
117	CCCC1CC(C)(C(=O)Cn2[nH]c(=O)ccc2=O)OC1=O (stereo unspecified)	-2.2	i
